Screening data from PubChem BioAssay.
Arbovirus inh: arbovirus infection inhibition | arbovirus infection cell-based antiviral screen | AID 1251 | 200,000 tested, 0.37% active | inhibition, % at 10 µM;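 active means inhibition from about 30%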;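 further: bluetongue infection of BSR cells; cell survival read as ATP light after 72 h; 0% = infected wells without compound and 100% = uninfected wells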
RecA splice inh: Mtb RecA intein splicing inhibition; 290,000 tested, 0.75% active; cell-free RecA intein splicing, fluorescence; inhibition, %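 (about 9 µM by stock and volumes)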; AID 2221; in the data active means inhibition above about 30%; inconclusive means no clear call, values can overlap the other calls;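 further: 0% = vehicle wells and 100% = reference inhibitor control wells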
Target sequence (P9WHJ3 whole entry, looked up, canonical isoform): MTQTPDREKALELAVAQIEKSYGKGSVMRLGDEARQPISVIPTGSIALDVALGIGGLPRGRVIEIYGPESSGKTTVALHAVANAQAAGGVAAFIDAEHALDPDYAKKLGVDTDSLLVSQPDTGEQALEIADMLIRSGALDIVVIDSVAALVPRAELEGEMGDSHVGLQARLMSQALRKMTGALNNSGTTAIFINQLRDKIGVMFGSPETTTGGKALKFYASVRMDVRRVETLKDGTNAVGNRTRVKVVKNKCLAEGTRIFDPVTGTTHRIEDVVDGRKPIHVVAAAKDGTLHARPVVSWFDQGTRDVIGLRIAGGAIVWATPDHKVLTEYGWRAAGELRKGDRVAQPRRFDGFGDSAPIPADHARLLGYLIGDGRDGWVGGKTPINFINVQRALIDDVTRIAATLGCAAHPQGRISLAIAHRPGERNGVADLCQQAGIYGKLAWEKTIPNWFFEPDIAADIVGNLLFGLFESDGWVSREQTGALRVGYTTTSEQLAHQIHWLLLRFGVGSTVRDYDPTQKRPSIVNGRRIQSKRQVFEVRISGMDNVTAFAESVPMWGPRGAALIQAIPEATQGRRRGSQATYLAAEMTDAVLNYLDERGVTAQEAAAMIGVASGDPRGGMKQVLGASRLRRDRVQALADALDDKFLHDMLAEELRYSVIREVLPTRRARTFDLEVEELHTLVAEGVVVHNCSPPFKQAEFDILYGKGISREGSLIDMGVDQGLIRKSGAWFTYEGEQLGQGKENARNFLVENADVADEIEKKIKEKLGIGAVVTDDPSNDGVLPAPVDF
YopH PTP inh: YopH (Yersinia) phosphatase inhibition; AID 898; inhibition, %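 (about 10 µM by stock and volumes)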; 140,000 tested, 0.16% active; fluorescence Ex485/Em525;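 active means inhibition of 50% or more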;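 further: controls were vehicle for no effect and minimum signal wells for full effect; inactives centre near -20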
Mtb betalactam: beta-lactam sensitization of Mtb H37Rv; M. tuberculosis H37Rv growth with meropenem, percent inhibition; hits of this screen are not shown here; inhibition, % at 25 µM; 330,000 tested, 0.27% active; AID 434955;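 active means about 74% or more and at least 40 points above the plate without the antibiotic, then above 30% in a dose series; inconclusive means first-round hits that could not be retested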;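 further: growth measured after seven days incubation then overnight dye step; 0% = bacteria only wells and 100% = bacteria with antibiotic; twin plates without the antibiotic show which effects depend on it; some results filed as inactive read as strong as hits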
Mtb growth: M. tuberculosis H37Rv growth inhibitors, H37Rv strain (AID 1626). M. tuberculosis H37Rv growth inhibition; higher % means a stronger effect. inhibition, % at 10 µM; hits with a dose series show IC50 in µM. 220,000 tested, 0.95% active;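 active means confirmed in a dose series; inconclusive means inhibition above 80% but not taken into the dose series; inactive means below 80% or under 30% at every dose of the series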;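 further: bacteria incubated seven days before Alamar blue readout; 0% = bacteria only wells and 100% = bacteria with antibiotic wells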
Arbovirus inh repeat: recorded beside Arbovirus inh, whose call it bears; inhibition, %; measured here: 10K subset replicate screen; many hits read low in the repeat;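 first of two repeat runs on a subset; 0% = infected and 100% = uninfected wells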
Starred values were filed as active, the others as inactive; u = inconclusive; x = not tested or not shown.

SMILES	Arbovirus inh	RecA splice inh	YopH PTP inh	Mtb betalactam	Mtb growth	others
CCOc1ccc2c(c1)/C(=C(\C(Cl)=C(Cl)Cl)[N+](=O)[O-])N2	-1	-63	x	4	9%
COc1cccc(NC(=O)Cn2cnc3sc(C)c(S(=O)(=O)N4CCN(C)CC4)c3c2=O)c1	-2	-0.1	-7	5	-1%	Arbovirus inh repeat=0
[O-]/[N+](=C/c1cccnc1)c1ccc(Br)cc1	4	-5.6	47	10	7%	Arbovirus inh repeat=2
O=C(O)Cc1sc(-c2ccccc2)nc1-c1cccs1	3	0.5	x	29	-10%
Cc1cc(OCc2nnc(SC(C)C(=O)O)n2Cc2ccccc2)ccc1Cl (configuration not stated)	5	1.3	x	x	-9%
Cc1ccc(-n2c(SCC(=O)NCc3ccco3)nnc2-c2cccnc2)cc1	8	2.0	32	-5	0%
COc1ccc(C(=O)/C=C/c2ccc(O)cc2)cc1	-3	1.7	x	7	2%
Nc1nonc1-n1nnc(C(=O)N/N=C/c2ccc(Br)cc2)c1CN1CCOCC1	x	-1.2	x	7	x
COc1cc(OC)c(C2N(C)c3ccccc3N2C)cc1OC	-5	2.9	-26	4	-5%
C/C(=N\N=C1/SC(CC(=O)O)C(=O)N1c1ccccc1)c1ccc(C)cc1 (configuration not stated)	x	-0.4	x	0	x
CCOC(=O)c1cn(CC)c2cc(Cl)c([N+](=O)[O-])cc2c1=O	10	-2.3	-11	-3	1%
N#CCCN(C(=O)CSc1ccc2c(c1)OCCO2)c1ccc(F)cc1	-3	-8.7	-17	-8	-1%
O=S1(=O)CCOC[C@H](c2ccccc2)N1Cc1cccc(Cl)c1	x	-1.0	x	-2	x
Cc1sc2nc(SCC(=O)NCCOCCO)nc(N)c2c1C	4	-0.5	x	-11	-3%
CCOC(=O)C1(Cc2ccccc2C)CCCN(C(=O)c2ccc(CSC)o2)C1 (configuration not stated)	x	4.6	x	-2	x
Cc1c(C(c2cc3c(cc2Br)OCO3)c2c(C)n(C)n(-c3ccccc3)c2=O)c(=O)n(-c2ccccc2)n1C	7	1.1	-39	-8	x
CCCNC(=O)Cn1cccc1C(=O)c1ccccc1	0	1.3	-45	-8	-9%
O=C(NCc1ccccc1)C1CC(=O)N(C2CCCCC2)C1 (configuration not stated)	x	0.3	x	-1	x
Cn1nnc2cc(C(=O)N3CCN(c4ccccn4)CC3)ccc21	x	-3.3	x	-7	x
O=C(Oc1ccc2c(c1)OCC2=O)c1ccc(Cl)cc1	x	1.9	x	1	-5%
O=C1CCN(Cc2ccc(O)cc2)CCN1CCO	x	-3.1	x	-12	x
CCc1nc2c(c(=O)c3ccccc3n2C)c(=O)n1CCc1ccc(OC)cc1	29	-0.6	-34	5	20%
O=C(c1ccc(Cl)c(Cl)c1)N1CCC(=O)N(C(COCc2cccc(Cl)c2)Cc2ccccc2)CC1 (configuration not stated)	-37	12	-7	9	1%
Clc1ccc2nc(CN3CCCc4ccccc43)cn2c1	15	4.3	-32	0	2%
O=C(CN1CCCC1)Nc1c2c(cc3c1CCC3)CCC2	6	-0.7	-30	-3	-4%

Structures shown so far with a furan ring, fused or not:
SMILES	Arbovirus inh	RecA splice inh	YopH PTP inh	Mtb betalactam	Mtb growth	others
Cc1ccc(-n2c(SCC(=O)NCc3ccco3)nnc2-c2cccnc2)cc1	8	2.0	32	-5	0%
CCOC(=O)C1(Cc2ccccc2C)CCCN(C(=O)c2ccc(CSC)o2)C1 (configuration not stated)	x	4.6	x	-2	x

The main list resumes, starting six compounds before the break.
SMILES	Arbovirus inh	RecA splice inh	YopH PTP inh	Mtb betalactam	Mtb growth	others
O=C(Oc1ccc2c(c1)OCC2=O)c1ccc(Cl)cc1	x	1.9	x	1	-5%
O=C1CCN(Cc2ccc(O)cc2)CCN1CCO	x	-3.1	x	-12	x
CCc1nc2c(c(=O)c3ccccc3n2C)c(=O)n1CCc1ccc(OC)cc1	29	-0.6	-34	5	20%
O=C(c1ccc(Cl)c(Cl)c1)N1CCC(=O)N(C(COCc2cccc(Cl)c2)Cc2ccccc2)CC1 (configuration not stated)	-37	12	-7	9	1%
Clc1ccc2nc(CN3CCCc4ccccc43)cn2c1	15	4.3	-32	0	2%
O=C(CN1CCCC1)Nc1c2c(cc3c1CCC3)CCC2	6	-0.7	-30	-3	-4%
Cn1nc(C(C)(C)C)c([N+](=O)[O-])c1C(=O)NC1CCCCC1	x	3.0	x	-9	x
COc1cc2[nH]c3c(=O)n4c(nc3c2cc1OC)SCCC4	-9	-2.3	x	-2	2%
Cc1cccn2c(=O)c3cc(C(=O)NCCN4CCOCC4)n(C)c3nc12	x	-41	x	-1	x
COc1ccc(C(CNC(=O)COc2ccccc2C#N)N2CCOCC2)cc1 (configuration not stated)	-3	0.5	-43	-18	-6%
CC(C)c1cc(N2CCC(=O)NC2=O)cc(C(=O)O)c1O	-1	-1.8	-31	-3	-4%
C=CCN(c1ccccc1)S(=O)(=O)c1cccc2cccnc12	x	3.9	x	-2	-3%
Cc1noc(C)c1C(=O)OCC(=O)N1CCN(S(=O)(=O)c2ccc3ccccc3c2)CC1	x	-0.1	x	0	-2%
CC(C)CCNC(=O)C(c1ccc(O)cc1)N(C(=O)C1COc2ccccc2O1)c1cccc(O)c1 (configuration not stated)	-6	2.5	x	2	4%
Cc1ccc2cccc(S(=O)(=O)N3CCCc4ccccc43)c2n1	1	3.3	x	0	4%
C=C(C)/C=N/NC(=S)Nc1ccc(S(=O)(=O)N2CCOCC2)cc1	x	2.8	x	-7	-4%
COc1ccc(CNc2ncccn2)cc1OC	1	-4.0	x	7	4%
Cc1ccc(C)c2[nH]c(=O)c(C(c3nnnn3C3CCCC3)N3CCOCC3)cc12 (configuration not stated)	2	-0.7	-37	3	-3%
NC(N)=N/N=C/c1cn(-c2ccccc2)nc1-c1cccs1	-25	x	x	100	u
CC(C)CCNC(=O)CCc1nnc2n(CCCOC(C)C)c(=O)c3ccccc3n12	x	0.0	x	-9	x
O=C(Nc1ccc2c(c1)CCC2)Nc1ccccc1F	x	0.3	x	-4	x
[O-][n+]1c2ccccc2c2n1CCCN=C2c1ccc(Cl)cc1	x	3.3	x	-5	x
CCn1c(SCC(=O)Nc2nc(C)c(C)s2)nnc1-c1cccnc1	-9	x	0	-15	1%
CCCCCC(=O)NC(=S)Nc1ccc2oc(=O)ccc2c1	-4	2.4	x	8	3%
C=CCn1cnc2c(oc3ccccc32)c1=O	x	0.9	x	-4	x
O=Nc1c(O)n(Cc2c(Cl)cccc2Cl)c2ccccc12	3	-2.1	-21	1	-1%
CCOC(=O)[C@@H]1[C@H]2COc3ccccc3[C@@H]2N2C(=O)N(c3ccc(C)cc3)C(=O)[C@]12C	x	1.1	x	-6	x
CN1CCN(CCCNC(=O)c2cc3c(=O)n(C)c4ccccc4c3s2)CC1	16	-0.3	-34	2	5%	Arbovirus inh repeat=-17
Cn1c(Cc2ccccc2)nnc1SCC(=O)N1CCN(c2ccccc2)CC1	-3	0.8	-38	-5	3%
CC1CCCCC1NS(=O)(=O)c1ccc(-n2cnnn2)cc1 (configuration not stated)	12	-1.5	-23	-13	9%
CCCCN(CC(=O)NCc1ccc(Cl)cc1)S(=O)(=O)c1ccc2c(c1)OCCO2	0	3.2	-19	-1	3%

The listing continues.
SMILES	Arbovirus inh	RecA splice inh	YopH PTP inh	Mtb betalactam	Mtb growth	others
Cc1cc2oc(=O)sc2cc1NS(=O)(=O)c1cccc2cccnc12	x	-1.1	x	5	x
COc1ccc(CC2(CO)CCN(CC3=CC[C@H]4C[C@@H]3C4(C)C)CC2)cc1	-4	6.3	x	5	2%
C/C(=N\Nc1ccc(C(F)(F)F)cn1)c1ccc(S(=O)(=O)NCc2ccco2)cc1	1	-1.5	9	-3	10%
c1ccc2[nH]c(CCCCc3nc4ccccc4[nH]3)nc2c1	x	-0.6	x	-8	x
O=C(N/N=C/C1CCCCC1)c1cc(Cl)ccc1O	-15	1.8	-48	13	23%
COc1ccc(C(=O)Nc2nc(-c3cccs3)cs2)cc1	4	21	-4	43	12%
C/C(CC(=O)Nc1ccc(Cl)cn1)=N\NC(=O)Cc1cccs1	x	62*	x	-2	-4%
Cc1cc2c(cc1C)CSC(c1ccccc1OC(=O)C(C)C)SC2	-35	-1.1	5	16	8%
NC(=O)c1ccc(C2SCC(=O)N2Cc2ccccc2)cc1 (configuration not stated)	2	2.5	-30	-4	6%
CCN(CC)c1ccc(NC(=O)c2ccccc2Br)cc1S(=O)(=O)Nc1ccccc1OC	1	9.1	-37	25	5%
COCCN1C(=O)C(CC(=O)Nc2ccccc2)SC1=Nc1ccc(OC)cc1 (configuration not stated)	-8	-0.1	-13	4	1%
CC1CCc2c(sc(NC(=O)CSc3ncnc4c3cnn4-c3ccccc3Cl)c2C#N)C1 (configuration not stated)	3	-0.6	-102	-8	-7%
CCC(C)(C)NC(=O)C(c1cccn1C)N(Cc1ccc(OC)cc1)C(=O)Cn1nnc2ccccc21 (configuration not stated)	-3	-2.2	-10	0	4%
CC(C)CC(=O)NC(NCC1CCCO1)C(Cl)(Cl)Cl (configuration not stated)	3	-1.7	-27	-15	-1%
Cc1ccc2nc(N3C(=O)C(O)=C(C(=O)c4ccco4)C3c3cccc(O)c3)sc2c1 (configuration not stated)	x	4.8	x	-1	x
O=S(=O)(Nc1ccc2c(c1)nc1n2CCN(Cc2ccccc2)C1)c1ccc(F)cc1	1	17	-22	5	-4%
Cc1ccc(C)c(N(C(=O)CCC(=O)Nc2cc(C)on2)C(C(=O)NC2CCCC2)c2ccco2)c1 (configuration not stated)	-4	-1.7	-42	-6	5%
CCC(C(=O)Nc1cccc(C(=O)O)c1)c1ccccc1 (configuration not stated)	-1	-3.9	x	3	-5%
C=CCN1C(=O)NC(=O)/C(=C/c2c(CCN(C)C(=O)c3ccccc3)cc3c(c2OC)OCO3)C1=O	x	-1.8	x	1	x
CCSc1nnc(NC(=O)c2csc(C)c2)s1	3	-0.2	-73	1	3%
COc1ccc(CNC(=O)C2CCN(S(=O)(=O)c3c(C)n[nH]c3C)CC2)cc1	6	-0.8	-31	-3	-6%
COCCNC(=O)/C(C#N)=C/c1c(N2CCCCCC2)nc2c(C)cccn2c1=O	x	-3.1	x	-6	x
O=C(c1ccccc1)c1coc2ccc(O)c(CN3CCOCC3)c12	0	11	16	-2	2%
CC1CC(C)CN(S(=O)(=O)c2ccc(NC(=S)NC(=O)c3ccccc3)cc2)C1 (configuration not stated)	-7	-1.3	-36	6	-2%
O=[N+]([O-])c1ccc(CSc2nnc(Cc3ccccc3)o2)cc1	x	1.0	x	0	13%

(listing goes on)
SMILES	Arbovirus inh	RecA splice inh	YopH PTP inh	Mtb betalactam	Mtb growth	others
O=C(C[n+]1ccn(-c2ccccc2)c1)c1ccc([N+](=O)[O-])cc1	x	-1.9	x	1	x
Cc1ccc(C2CC(c3ccccc3)=NN2c2ccccc2)o1 (configuration not stated)	-10	1.3	-15	8	6%
Cc1ccc(NC(=O)CSc2nnc(CNC(=O)c3ccco3)o2)cc1	4	x	x	95	0%
COCCn1c(-c2ccc(OC)cc2)c(-c2ccc(OC)cc2)oc1=O	x	1.1	x	9	x
COC(=O)c1[nH]c2ccc(Cl)cc2c1NC(=O)CN1CCC(C(N)=O)CC1	3	-0.8	3	-7	0%
CCC(=O)NC(NC(=S)Nc1ccccc1Br)C(Cl)(Cl)Cl (configuration not stated)	2	-2.0	-30	1	-7%
COc1ccc(-c2nc(C#N)c(N3CC(C)OC(C)C3)o2)cc1OC (configuration not stated)	-3	1.0	-31	0	-6%
Cc1ccc(-c2nc(=S)c3c(n2CC2CCCO2)CC(C)(C)OC3)cc1 (configuration not stated)	7	-1.2	-12	3	-5%
CCn1c(SCC(=O)Nc2ccccc2)nc2nc3c(cc2c1=O)COC(C)(C)C3	x	6.4	x	7	2%
O=C(O)C1CCN(C(=O)c2ccc(Cl)cc2)CC1	4	-1.4	-13	0	-6%
COc1ccc(CNC(=O)CSc2ncn[nH]2)cc1OC	x	0.4	x	-8	x
COc1ccc(N2C(=O)CC(Nc3ccc(F)cc3)C2=O)c([N+](=O)[O-])c1 (configuration not stated)	-1	x	x	-1	-3%
O=C(NC1(C(F)(F)F)NC(=O)N(Cc2ccccc2)C1=O)c1cccnc1 (configuration not stated)	10	1.0	-21	-10	-4%
C=C1CN(Cc2ccccc2)S(=O)(=O)c2ccccc21	x	4.2	x	-1	-3%
O=c1oc2ccccc2nc1/C=C(O)/C=C\c1ccccc1	-18	-0.1	-8	99	4.3µM*
COc1ccc2c(c1OC)C(=O)OC2CC(=O)c1ccc(O)c(O)c1 (configuration not stated)	-4	-5.0	3	2	-3%
Cc1nn(-c2ccccc2)c(N)c1Sc1ccc([N+](=O)[O-])cc1	10	0.9	-12	-1	11%
Cc1ccc(CCN2CC(C(=O)NCc3ccc4c(c3)OCO4)CC2=O)cc1 (configuration not stated)	x	-0.3	x	-2	2%

An excerpt. The share of hits here may be higher or lower than overall.
